Screening data: PubChem, ICCB-Longwood Screening Facility, Harvard Medical School
AID504770: growth inhibitors of E. coli YBA685 in a screen for V. cholerae RctB (chromosome II replication) inhibitors; z-score (concentration not given with the values); E. coli YBA685 rctB-dependent plasmid, OD600 growth, 3 h; active compounds read low; actives 0.27% (n = 130,000);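 active means z-score under -2 on both plates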;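 further: wells of about 30 µL received 100 nL stock; score is relative to mean and SD of the test wells; the first replicate is given; strong numbers were not always called active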
Ba CapD inh: CapD enzyme inhibition; purified CapD enzyme, fluorescence intensity read-out; active compounds read low; some hits fall short of the stated cut; z-score (concentration not given with the values); actives 0.23% (n = 140,000); AID 492967;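 active means z-score under -4 in either of two replicates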;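 further: stock transfer was 100 nL into about 40 µL; score is relative to mean and spread of the plate; one replicate is shown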
Numbers without * were called inactive; · = not tested or not shown. Some of the compounds tested. The share of hits here may be higher or lower than overall.

SMILES	AID504770	Ba CapD inh
CC(Sc1n[nH]c(N)n1)C(=O)C12CC3CC(CC(C3)C1)C2 (centres undefined)	1.35	·
Cc1csc(N2CCc3ccccc32)n1	-2.4	-0.485
Cc1onc(-c2c(Cl)cccc2Cl)c1CSC(=S)N(C)C	0.8	0.37
Cc1ccccc1-n1c(SCc2cc(=O)n3cc(Br)ccc3n2)nc2[nH]ncc2c1=O	·	2.12
O=S(=O)(NCCc1cccs1)c1ccc2ccccc2c1	-0.25	·
CCC(CC)C(=O)c1c[nH]c(C(=O)N2CCN(c3ccccc3)CC2)c1	·	-0.85
COC(=O)c1ccc2c(=O)n(CCN3CCOCC3)c(SCC(=O)Nc3ccccc3OC)nc2c1	0.25	0.545
COC(=O)/C=C/c1cncc2ccccc12	-0.85	5.13
CC(=O)N1CC(C)C(=O)Nc2ccccc21 (centres undefined)	-0.2	0.13
O/N=C(\c1ccccc1)c1ccc(Cl)cc1	-0.4	-0.655
C/C(=N\NC(=S)N1CCCC1)c1ccccc1	0.2	-0.035
CCOC(=O)c1cc2sc(C)cc2n1CC(=O)N1CCCCC1C (centres undefined)	0.25	·
COc1ccccc1NC(=O)Nc1nnc(N2CCCCC2C)s1 (centres undefined)	-0.15	0.44
CN(C)Cc1ccccc1C(O)c1ccccc1 (centres undefined)	-0.55	-0.19
O=C(Nc1ccc(I)cc1)c1nsc(Cl)c1Cl	0.9	-0.035
CCN(CC)C(=O)COc1cccc2ccccc12	-0.25	·
CN(C)N1C(N)=C(C#N)C(c2cccc(Cl)c2)C2=C1CC(C)(C)CC2=O (centres undefined)	0.15	-0.365
COc1ccc(C)cc1S(=O)(=O)NC1C2CC3CC(C2)CC1C3 (centres undefined)	·	0.225
COCCN1Cc2cccc(C(=O)NCc3ccc(C)cc3)c2C1=O	-0.2	-0.28
CCOC(=O)N1CCN(C(=O)CCN2C(=O)/C(=C\c3ccco3)SC2=S)CC1	0.25	·
C/C(=N\OCc1nc2c3cnn(C)c3ncn2n1)c1cccs1	-0.2	·
Cc1sc2ncn(CC(=O)NCC(=O)N(C)Cc3ccccc3)c(=O)c2c1C	-0.1	0.525
O=C(Cn1c(=O)n(-c2ccccc2)c(=O)n1CC(=O)N1CCOCC1)N1CCOCC1	-2.55	48.4
Cc1ccccc1NC(=O)CCCn1c(=O)c2cccn2c2ccccc21	-0.15	-0.07
CCC(C)(C)c1cc2cc(NC(=O)c3ccc(C(C)(C)C)cc3)ccc2[nH]1	·	-0.2
COC(=O)c1cc(C(=O)OC)cc(-n2c(C)cc(C(=O)CSc3nnc4cc(C)c5ccccc5n34)c2C)c1	·	0.3
O=C(c1cccc2c1OCCCO2)N1CCSCC1	-1.65	-0.46
Cc1ccc(C(=O)Oc2ccccc2N2CCOCC2)cc1	-0.35	1.04
Cc1cc(C)c(C2=NON3N(C(=O)c4cc(Cl)cc(Cl)c4)c4ccccc4N23)c(C)c1	·	0.64
COC(=O)c1sccc1S(=O)(=O)Nc1ccc(Cl)cc1	-0.75	-1.11
CC(N)Cc1cccs1 (centres undefined)	0.3	·
O=C(Nc1ccc(F)cc1)/C(=C\c1ccc2c(c1)OCO2)NC(=O)c1ccccc1Br	·	5.6
COC(=O)c1cc(CN2CCN(C)CC2)ccc1O	0.6	0.24
NC(=O)CC(CC(N)=O)c1c(Cl)cccc1Cl	-0.05	-0.965
O=C(OCC(=O)N1CCN(C(=O)c2ccco2)CC1)c1ccccc1NS(=O)(=O)c1ccc(F)c(F)c1	2.15	·
CC(C)c1ccccc1NC(=O)c1ccc(Br)o1	1	0
CC(=O)Oc1ccc(C2Nc3c(C(=O)O)ccc([N+](=O)[O-])c3C3C=CCC32)cc1 (centres undefined)	·	-2.67*
CCOc1ccc(-n2c(CSc3nc(C)cc(C)n3)nnc2SC)cc1	0.2	-0.17
Cc1cccc(C(=O)OC(C(=O)c2ccccc2)c2ccccc2)c1O (centres undefined)	0.65	0.15
Cc1onc(-c2ccccc2)c1C(=O)OCc1ncc(-c2ccccc2)o1	0.6	·
O=C(O)CCCS(=O)(=O)c1ccccc1	0.35	·
CCOC(=O)c1cccc(-c2ccc(C3C(C#N)=C(N)OC4c5ccccc5OC(=O)C43)o2)c1 (centres undefined)	0.3	4.28
CCOC(=O)c1ccc(-c2ccc(/C=N/NC(=O)Cc3nc4ccccc4n3C)o2)cc1	-0.6	·
COc1ccc(OC)c(C2C3=C(CC(C)(C)CC3=O)Nc3ncnn32)c1 (centres undefined)	·	-1.14
Cc1ccc(-n2nc(C)c3c2NC2=C(C(=O)CC(C)(C)C2)C3c2ccc(C)o2)cc1 (centres undefined)	-1.8	·
COc1cccc(OCC(O)CN2CC(C)CC(C)C2)c1 (centres undefined)	0.05	-0.37
O=C(O)CCN1C(=O)C2CC=CCC2C1=O (centres undefined)	-1	-0.55
O=C(NCc1cccs1)C1C2C=CC3(CN(Cc4cccs4)C(=O)C13)O2 (centres undefined)	-0.15	0.09
CC(C)CCNC(=O)C1(C)CCC(=O)N1CCc1ccccc1 (centres undefined)	1.15	-0.1
COc1ccc(C2C(C#N)=C(N)Oc3n[nH]c(C)c32)cc1OCc1ccc(C(=O)OCC(C)C)cc1 (centres undefined)	·	-0.655
The results go on:
SMILES	AID504770	Ba CapD inh
Cc1c(C(=O)O)oc2ccc3c(c12)C=CC1(CCCC1)O3	0.1	8.04
CN(C)C(=O)CN1c2ccccc2-c2ccccc2S1(=O)=O	-0.05	·
CS(=O)(=O)N1CCC(C(=O)O)CC1	-0.8	-1.21
CCN(CC)S(=O)(=O)c1ccc(NC(=O)c2ccc(C)cc2)cc1	0.85	-0.585
Nc1nccc(-c2ccco2)n1	1.2	33.6
Cc1cccc(C)c1NC(=O)CSC(=O)c1ccc([N+](=O)[O-])cc1	·	0.995
CC(Oc1ccc([N+](=O)[O-])cc1)c1ccnc2nc(/N=C/N(C)C)nn12 (centres undefined)	·	-0.115
NC1CCN(c2ncc(C(F)(F)F)cc2Cl)CC1	0.6	0.185
O=C(CSc1nnc2ccc3ccccc3n12)c1ccccc1	1.85	-0.2
CN(C)c1ccc(/C=N/N2CC(O)=C(c3nc4ccccc4s3)C2=N)cc1	-0.25	·
CCOC(=O)c1c(C)[nH]c(C)c1C(=O)COC(=O)c1ccc(F)c(S(=O)(=O)N2CCOCC2)c1	0.35	·
O=c1[nH]c2ccccc2n1CCCSc1nc2ccccc2[nH]1	0.2	0.065
O=C(/C=C/c1cccs1)NC1CCS(=O)(=O)C1 (centres undefined)	-0.85	·
COc1ccc(CNC(=O)C(C)Sc2nnnn2C)cc1 (centres undefined)	-0.5	·
CC(=O)c1ccccc1OC(=O)c1ccccc1Cl	·	0.495
COc1ccc(C2C3=C(CC(C)(C)CC3=O)NC3=C2C(=O)CC(C)(C)C3)cc1	·	1.11
CN(C)c1ccc(C2CC(c3ccc(Br)cc3)=NN2S(C)(=O)=O)cc1 (centres undefined)	-0.15	-0.015
CCN1CCN(CCCNC(=S)Nc2ccc3nc(N4CCN(CC)CC4)cc(C)c3c2)CC1	-0.8	10.5
O=C(CCCCCN1C(=O)C2C3c4ccccc4C(c4ccccc43)C2C1=O)OCC(=O)c1ccccc1 (centres undefined)	·	0.235
COc1cc(/C=C\C(=O)OCn2nnc3ccccc3c2=O)cc(OC)c1OC	1.3	-0.095

16 compounds out of the list, sorted by number of heavy atoms, ascending.
SMILES	AID504770	Ba CapD inh
CC(N)Cc1cccs1 (centres undefined)	0.3	·
Cc1csc(N2CCc3ccccc32)n1	-2.4	-0.485
COC(=O)/C=C/c1cncc2ccccc12	-0.85	5.13
NC1CCN(c2ncc(C(F)(F)F)cc2Cl)CC1	0.6	0.185
COC(=O)c1sccc1S(=O)(=O)Nc1ccc(Cl)cc1	-0.75	-1.11
Cc1onc(-c2c(Cl)cccc2Cl)c1CSC(=S)N(C)C	0.8	0.37
CC(C)CCNC(=O)C1(C)CCC(=O)N1CCc1ccccc1 (centres undefined)	1.15	-0.1
Cc1cccc(C)c1NC(=O)CSC(=O)c1ccc([N+](=O)[O-])cc1	·	0.995
O=C(NCc1cccs1)C1C2C=CC3(CN(Cc4cccs4)C(=O)C13)O2 (centres undefined)	-0.15	0.09
CN(C)c1ccc(/C=N/N2CC(O)=C(c3nc4ccccc4s3)C2=N)cc1	-0.25	·
COc1cc(/C=C\C(=O)OCn2nnc3ccccc3c2=O)cc(OC)c1OC	1.3	-0.095
Cc1ccccc1-n1c(SCc2cc(=O)n3cc(Br)ccc3n2)nc2[nH]ncc2c1=O	·	2.12
CCOC(=O)c1ccc(-c2ccc(/C=N/NC(=O)Cc3nc4ccccc4n3C)o2)cc1	-0.6	·
CCN1CCN(CCCNC(=S)Nc2ccc3nc(N4CCN(CC)CC4)cc(C)c3c2)CC1	-0.8	10.5
COc1ccc(C2C(C#N)=C(N)Oc3n[nH]c(C)c32)cc1OCc1ccc(C(=O)OCC(C)C)cc1 (centres undefined)	·	-0.655
O=C(OCC(=O)N1CCN(C(=O)c2ccco2)CC1)c1ccccc1NS(=O)(=O)c1ccc(F)c(F)c1	2.15	·

Further records follow:
SMILES	AID504770	Ba CapD inh
CC1(C(=O)NN)NC2(CCCCC2)Cc2ccccc21 (centres undefined)	-0.15	·
CC1(C)C2CCC1(C)C(NCc1ccccc1)C2 (centres undefined)	0.55	-0.085
CC(=O)NC(C)c1nc2ccccc2n1Cc1ccccc1F (centres undefined)	-0.8	0.285
Cc1ccc(C)c(NC(=S)NCCCO)c1	-0.95	·
CCN(CC(=O)Nc1cc(C)c2c(=O)oc3ccccc3c2n1)Cc1ccccc1	-0.1	0.28
O=C(O)c1cc2nc3c(c(C(F)(F)F)n2n1)CCC3	-0.6	·
O=C1c2ccccc2C(O)(c2ccccc2)N1C1CC1 (centres undefined)	-0.5	0.34
CCCN(CCC)C(=O)c1ccc(OC)cc1	2.35	-0.455
Nc1cc(-c2cccc(Cl)c2)nn1-c1ccc(S(N)(=O)=O)cc1	1.85	-0.17
COc1cccc(C(=O)O/N=C(\C)c2sc3nc4ccccc4n3c2C)c1	·	-0.645
O=C1CCC(=O)N1CCOP1(=O)COc2ccccc2OC1	1.65	-0.46
CC(C)c1ccccc1NC(=O)c1cc2ccccc2oc1=O	-0.4	-0.99
Cc1ccc(NC2SC(=O)N(c3ccc(C)cc3)C2=O)cc1 (centres undefined)	-1.1	0.24
COc1ccccc1OC(C)C(=O)NCc1ccccc1 (centres undefined)	1.35	-0.79
COc1ccccc1C1/C(=C(\O)c2ccc(Br)cc2)C(=O)C(=O)N1c1cccc(C(F)(F)F)c1 (centres undefined)	·	31.3
Cc1c(C(=O)CSc2n[nH]c(=O)n2Cc2ccco2)sc2ccc(Cl)cc12	-0.35	-0.36
Cc1ccc(-n2nnnc2-c2c[nH]c3cc(Cl)ccc23)cc1	2.65	-0.05
Cc1ccc(Cn2ccsc2=NC(=O)CSc2nnc(-c3cccnc3)n2N)cc1	0.3	·
Cc1cc(C(=O)Nc2ccc3nc(C)sc3c2)c(C)o1	1.15	·
Cc1ccc(Cl)cc1N1C(=O)CC(Sc2ccccc2N)C1=O (centres undefined)	-0.85	0.345
COc1cccc(CC(=O)Nc2nccs2)c1	-0.55	·
C/C=C1\CC(C)C(C)(O)C(=O)OCC2CCN3CCC(OC1=O)C23 (centres undefined)	-0.2	0.235
O=C(Cn1c(=O)c2cccn2c2ccc(F)cc21)N1CCc2ccccc21	-0.4	1.45
O=c1oc(-c2cccc(C(F)(F)F)c2)nc2ccccc12	-0.1	-0.375
Cc1cc(C)n(CCCC(=O)O)n1	-0.45	·
CCN1C(=O)C[C@@H](C(=O)O)[C@@H]1c1ccc(OC)cc1OC	-0.3	·
CC(=O)Nc1cc2c(nc1C)nc(C)n2Cc1ccc(Br)cc1	-0.35	·
COc1ccc(NC(=O)C(C)Sc2nc(N)cc(=O)[nH]2)cc1 (centres undefined)	-1.4	·
COc1ccc2c(c1)C1(NC(=O)c3ccccc3N1)C(=O)N2 (centres undefined)	·	1.29
CCOC(=O)C1=C(C2CC=CCC2)NC(=S)NC1C (centres undefined)	-1.1	-0.38
COc1ccc2nc(SCC(=O)Nc3ccc(NC(C)=O)cc3)[nH]c2c1	·	-0.385
O=C(c1c[nH]c2ccccc12)C(Sc1nnc(C2CC2)o1)c1ccccc1 (centres undefined)	0.25	·
COC(=O)C(C(=O)OC)=C1C2CC3CC(C2)CC1C3	0.55	0.58
CC(=O)C1=NN(c2ccccc2C)C2(S1)c1ccccc1C(c1ccc(Br)cc1)=NN2c1ccccc1 (centres undefined)	·	-0.31
NC(=O)Cn1c(CN2CCCC2c2nc3ccccc3s2)nc2ccccc2c1=O (centres undefined)	0.05	·
CCCC1=C(C(=O)OCC)C2(C(=O)Nc3ccccc32)C(C(=O)OC(C)(C)C)=C(N)O1 (centres undefined)	·	-0.035
OC1(c2ccc(Cl)cc2)CN(c2ccccc2)C2=[N+]1CCS2 (centres undefined)	·	1.59
Cc1nn(CCO)c(C)c1Oc1ccccc1O	-0.45	-0.36
N#CC1(C#N)[C@@H]2c3ccccc3C=CN2[C@@H](C(=O)C23CC4CC(CC(C4)C2)C3)[C@@H]1c1ccc(C(F)(F)F)cc1	·	-0.2
COc1cc(C=Nc2ccc(Cl)cc2)ccc1OC(=O)/C=C/c1cccs1	-0.6	-0.69
C=C(C)CSc1nc2c(c(=O)n1C1CCOC(C)(C)C1)C1(CCCCC1)Cc1ccccc1-2 (centres undefined)	·	0.4
Cc1nc2sc(C(c3ccccc3)N3CCc4ccccc4C3)c(O)n2n1 (centres undefined)	0.35	-0.19
O=C(Nc1cc(Cl)ccc1Oc1ccc2ccccc2c1Cl)c1cc(Br)cc(Br)c1O	·	0.97
Cc1oc(C2CC2)cc1C(=O)O	-0.45	·
